Screening results (PubChem BioAssay)
gsp antagonist: qHTS for Antagonists of gsp, the Etiologic Mutation Responsible for Fibrous Dysplasia/McCune-Albright Syndrome: qHTS. gsp-mutant cells, cAMP HTRF, 30 min; control for the full effect not named in the record. Potency, µM (top dose mostly 76.9 µM), without a hit: at the highest dose activity change, negative = inhibition, actives largely listed as inhibitors. 340,000 tested, 0.4% active. AID 624288, 2012; active = falling curve of any shape with a large fitted effect; inconclusive = falling curve, mostly with a smaller effect; inactive = flat or rising curve; cell line not stated here;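 also: intracellular cAMP measured with PDE inhibitor Ro 20-1724 present during compound exposure; potency is read from the fitted curve at half-maximal effect; % is scaled to controls: 0 for no effect and ±100 for the full control effect; nearly all actives have a fitted effect of over 65% in size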
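HTRF cAMP read-out (cAMP-d2 plus anti-cAMP antibody-K in lysis buffer, 30 min RT). Before lysis, cells are exposed to compounds with […] for 30 min at 37C in DPBS containing Ca/Mg, BSA and Tween 20.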
CtBP-E1A inh: qHTS Assay for Inhibitors of the CtBP/E1A Interaction. CtBP / adenovirus E1A interaction (AlphaScreen). AlphaScreen GST-E1A/His-CtBP binding, 1536-well; active compounds read low; control for the full effect not named in the record. activity change, % (test concentration not listed). 340,000 tested, 0.49% active. AID 651724, 2012; in the data active means activity change below about -65%; inconclusive means about -30% to -65%; inactive means above about -30%; also: % is scaled to controls: 0 for no effect and ±100 for the full control effect
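AlphaScreen with 125 nM GST-E1A and 125 nM His-CtBP (5X stocks) in Tris pH 8.0, 300 mM NaCl, BSA, Tween 20, TCEP. Compounds preincubated 2 h at 37 deg C, then glutathione donor/nickel acceptor beads added for 1 h at 37 deg C in dark.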
gsp ag: qHTS for Agonist of gsp, the Etiologic Mutation Responsible for Fibrous Dysplasia/McCune-Albright Syndrome: qHTS; gsp mutant cells, cAMP HTRF, 30 min; control for the full effect not named in the record; Potency, µM (highest dose often 76.9 µM), for inactives: at the top dose activation (cAMP increase), most hits filed as activators; 340,000 tested, 0.13% active; AID 624287, 2012; active = well fitted activation curve with a large enough effect; inconclusive = small, poorly fitted or top-dose-only effect, or another doubt; inactive = no such curve, though single readings can be large or run the other way; cell line not stated here;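 also: phosphodiesterase inhibitor Ro 20-1724 added with compounds to block cAMP breakdown; potency is read from the fitted curve at half-maximal effect; nearly all actives have a fitted effect of over 60% in size; about a fifth of the inactives were tested at one dose only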
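Cells stably selected in G418 were plated at 2000/well, grown 16-24 hr, then given compounds in DMSO with the PDE inhibitor […] (300 uM solution added) for 30 min at 37C; cAMP was read by HTRF.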
D2 potentiator: Beta-Arrestin HTS for Positive Allosteric Modulators of the Human D2 Dopamine Receptor: Potentiators; 360,000 tested, 0.23% active; AID 624464, 2012; D(2) dopamine receptor (Homo sapiens), P14416; DiscoveRx D2 beta-arrestin cells, luminescence, 90 min; 100% = 57 uM dopamine signal; potentiation, % (no concentration beside the values); active = potentiation of 50% or more; inconclusive = 30% to 50%; inactive = 30% or less;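 also: compound concentration not given in the record; tested on top of an EC20 dose of dopamine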
Target sequence (P14416 whole entry, looked up): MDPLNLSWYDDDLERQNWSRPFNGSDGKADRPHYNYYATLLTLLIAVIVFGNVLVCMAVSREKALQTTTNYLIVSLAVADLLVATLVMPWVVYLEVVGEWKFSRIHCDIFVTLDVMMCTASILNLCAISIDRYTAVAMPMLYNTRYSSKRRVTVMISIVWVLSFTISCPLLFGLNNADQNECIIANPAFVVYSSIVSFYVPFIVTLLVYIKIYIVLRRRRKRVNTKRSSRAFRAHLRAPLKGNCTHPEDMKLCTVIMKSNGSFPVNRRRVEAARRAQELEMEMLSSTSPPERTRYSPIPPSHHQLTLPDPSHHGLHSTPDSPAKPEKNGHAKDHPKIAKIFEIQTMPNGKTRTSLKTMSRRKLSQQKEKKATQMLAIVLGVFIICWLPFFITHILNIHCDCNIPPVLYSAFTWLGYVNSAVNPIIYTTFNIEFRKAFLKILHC
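D2 cells co-treated with compound plus 50 nM dopamine (EC20) for 90 min at 37 deg C to detect potentiation. Beta-arrestin recruitment was read as enzyme-fragment luminescence after 1 h at ambient temperature. Full response was set by 57 uM dopamine.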
Six1-Eya2 blk: qHTS Assay for Inhibitors of the Six1/Eya2 Interaction. AID 651725, 2012. AlphaScreen GST-Six1/His-Eya2 binding, biochemical; active compounds read low; control for the full effect not named in the record. 360,000 tested, 0.56% active. activity change, % (test concentration not listed). Homeobox protein SIX1 (Homo sapiens) + Protein phosphatase EYA2 (Homo sapiens), …; in the data active = activity change below about -65%; inconclusive = about -30% to -65%; inactive = above about -30%; also: % is scaled to controls: 0 for no effect and ±100 for the full control effect
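Compounds are tested against tagged Six1 and Eya2 proteins bridged by glutathione donor and nickel acceptor beads; after a one-hour incubation at 37 °C without light, AlphaScreen emission is recorded.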
D2 agonist: Beta-Arrestin HTS for Positive Allosteric Modulators of the Human D2 Dopamine Receptor: Agonists. DiscoveRx PathHunter D2 beta-arrestin, luminescence, 90 min; 100% = 57 uM dopamine signal. 360,000 tested, 0.084% active. activation, % (test concentration not listed); in the data active = activation above about 40%; inconclusive = about 15% to 40%; inactive = below about 15%; also: compound concentration not given in the record; the text of the record calls up to 30% inactive
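DiscoveRx PathHunter D2 beta-arrestin cells (2,100/well) attached overnight, then compound-stimulated 90 min at 37 C in HBSS/10 mM HEPES/0.1% Tween-20 buffer; beta-galactosidase complementation read by luminescence after 1 h at ambient temperature. Dopamine 57 uM final (EC100) as control.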
* marks the source's active call; other numbers are inactive results; ? = inconclusive; . = no result given; [ ] = remark or other dose. Random draw from the library; any-hit rate near 1.4%.

gsp antagonist,CtBP-E1A inh,gsp ag,D2 potentiator,Six1-Eya2 blk,D2 agonist,Compound
8.1%,-0.4,-4.7%,-3.1,3.2,-5.4,CCCCCCCc1c(O)nc(SCCN2CCOCC2)[nH]c1=O
11.7%,-11.7,-21.9%,2.1,-0.5,-1.2,C/C(CCc1ccccc1)=N\NC(=O)CCc1ccccc1
-1.0%,-0.1,27.1%,-1.3,-1.9,-1.6,CCOC(=O)CSC1=Nc2ccccc2C2=NC(CC(=O)NCc3cccs3)C(=O)N12 (stereo not given)
0.1%,14.4,6.1%,-9.9,-0.6,-1.4,CCc1c(C(=O)Nc2ncn(Cc3cccc(C)c3)n2)csc1C
4.0%,12.0,-1.7%,-9.3,2.9,-2.2,O=C(CSc1nnc(Nc2ccccc2)s1)NCc1cccs1
6.6%,-7.9,5.6%,-0.1,10.5,0.9,COC(=O)c1ccc(N=C2SCC(=O)N2C)cc1
4.3%,2.0,24.5%,-3.7,3.2,-3.8,NC(=S)N=Nc1c(O)n(Cc2ccccc2)c2ccccc12
-7.2%,-2.7,6.0%[15.4 µM],-6.6,6.2,-3.3,CCOC(=O)/C(=N/O)C1=NC(C)(C)Cc2cc(C)c(C)cc21
-2.8%,-4.5,-32.6%,-10.4,-0.9,-5.7,Nc1cc(-c2ccc(Br)cc2)nn1Cc1ccccc1
-10.0%,4.6,10.7%[15.4 µM],-30.9,-21.3,-1.2,CC(C(=O)NCC1CCCCC1)N1CCc2ccccc2C1 (stereo not given)
.,6.2,25.8%,-8.7,-7.3,-8.7,CCn1cc(/C=C(\NC(=O)c2ccccc2)C(=O)NCCN2CCOCC2)c2ccccc21
.,-12.9,-18.9%[15.4 µM],-3.0,0.7,-1.9,Cc1cc(C)n(-c2n[nH]c(C)c2[N+](=O)[O-])n1
-2.1%,20.8,-8.9%[15.4 µM],2.8,-13.0,0.9,Cc1ncsc1CCC(=O)N1CCCC(Nc2ccc(F)c(F)c2)C1 (stereo not given)
8.8%,8.5,4.6%[15.4 µM],0.5,-17.8,-1.0,COc1ccc(NC(=O)c2ccc(NC(=O)COC(=O)CC(NC(=O)c3ccccc3Cl)c3ccccc3)cc2)cc1 (stereo not given)
-10.5%,27.0,21.0%,24.6,17.6,0.3,COc1ccccc1OCCOc1ccc(C(=O)c2ccccc2)cc1
6.3%,.,-43.6%[inhibitor],?,0.6,-0.2,CN1CCN(CCC(=O)Nc2ccc(Br)cc2)CC1
-0.6%,5.2,23.4%,-5.2,6.8,-6.3,O=C(/C=C/c1cccs1)Nc1nncs1
10.3%,8.1,3.1%,-0.6,-2.1,-0.4,CC(Sc1nc(N)cc(N)n1)C(=O)NCCC1=CCCCC1 (stereo not given)
1.3%,-8.0,6.4%[15.4 µM],-4.5,-5.3,-6.0,Cc1nnc(SCC2=C(C(=O)O)N3C(=O)C(NC(=O)COc4ccccc4)C3SC2)s1 (stereo not given)
?,-4.3,-18.7%,-4.1,-5.9,0.5,CC(NC(=O)c1cccs1)C(c1cccs1)N1CCN(c2ccccc2)CC1 (stereo not given)

Single records, from the list above. Order of values: gsp antagonist	CtBP-E1A inh	gsp ag	D2 potentiator	Six1-Eya2 blk	D2 agonist
C/C(CCc1ccccc1)=N\NC(=O)CCc1ccccc1 is listed as 11.7%	-11.7	-21.9%	2.1	-0.5	-1.2
Nc1cc(-c2ccc(Br)cc2)nn1Cc1ccccc1 is listed as -2.8%	-4.5	-32.6%	-10.4	-0.9	-5.7

Other structures.
gsp antagonist,CtBP-E1A inh,gsp ag,D2 potentiator,Six1-Eya2 blk,D2 agonist,Compound
6.2%,.,-18.7%,-25.6,7.4,0.8,CC(=O)c1ccc(OCC(=O)NCc2ccc(F)cc2)cc1
11.4%,25.2,?,0.8,-25.9,-0.2,c1cncc(-c2nnc3sc(-c4ccco4)nn23)c1
0.5%,1.2,-37.9%[inhibitor],-3.0,15.7,-1.4,Cc1cc(C)n(C(C)CNS(=O)(=O)c2ccc(C)c(C)c2)n1 (stereo not given)
-3.2%,.,4.9%,-4.3,-0.1,7.8,CC(C)CCNC(=O)c1cn(C)c2ccc(S(=O)(=O)N3CCCC3)cc2c1=O
-22.8%,4.6,-26.7%,-15.7,0.3,-1.5,O=C1OCCC1Sc1nnc(-c2ccccc2Cl)n1Cc1ccccc1 (stereo not given)
-12.0%,0.8,-2.9%,-25.8,-13.7,-1.1,COc1ccc(OC)c(/C=N/NC(=O)CCN2CCN(C(c3ccccc3)c3ccccc3)CC2)c1
-17.0%,.,26.2%,-12.7,-4.4,-2.0,CC(=O)Nc1ccc(C(=O)COC(=O)c2cc(C)oc2C)c(F)c1
-10.5%,-4.2,.,-11.7,2.9,-4.7,COc1ccc2c(C)c(CC(=O)N3C[C@H]4C[C@@H](C3)c3cccc(=O)n3C4)c(=O)oc2c1OC
.,18.2,16.8%[15.4 µM],10.2,-1.5,-2.2,CC(OC(=O)Cc1coc2cc3c(cc12)CCC3)C(=O)NC(N)=O (stereo not given)
-8.8%,3.1,17.9%,-6.8,-1.0,-4.0,Cc1ccc(CNC(=O)CN(C2CCCCC2)S(C)(=O)=O)cc1
4.2%,-3.8,-0.4%,-2.6,-4.1,?,O=C1c2ccc([N+](=O)[O-])cc2C(=O)N1Cc1cccnc1
7.4%,7.9,?,-3.2,8.8,-2.7,COc1ccc(S(=O)(=O)N2CCOC2CNC(=O)C(=O)NCCc2ccccc2)cc1OC (stereo not given)
-30.0%,.,-0.5%[15.4 µM],0.3,-4.3,2.4,CC(=O)c1c(C)[nH]c(C(=O)N(C)C(c2ccccc2)c2ccccc2)c1C
-21.6%,-8.3,-59.4%[inhibitor],5.4,-14.9,2.8,C=CC[C@@H](CC(=O)N(CCO)Cc1ccccc1)C(=O)N[C@@H](COC(=O)[C@H](CC=C)CC(=O)OC(C)(C)C)Cc1c[nH]c2ccccc12
.,2.3,.,-8.8,-3.6,-5.4,CC1(Cc2ccccc2OC(F)(F)F)C(=O)Nc2ccc(-c3ccsc3)cc21 (stereo not given)
7.1%,7.5,5.5%,7.2,2.6,-3.0,CC(C)C(=O)NC(C)C(c1cccs1)N1CCOCC1 (stereo not given)
3.1%,12.6,27.1%[15.4 µM],-17.9,3.8,-2.7,CCNc1nc(C)nc2c1cnn2C
2.5%,-7.5,-19.1%,0.4,-10.7,-2.3,CCOc1cc(/C=N/NC(=O)CCCC(=O)NC2CCCCC2)ccc1O
14.0%,15.5,-16.7%,3.0,24.1,-4.4,O=C(CCS(=O)(=O)c1ccccc1)NC1CCCC1
-2.1%,-10.2,-3.0%,-0.2,-1.3,-0.7,Cc1cccc(NC(=O)c2ccco2)c1C
-0.2%,18.0,-18.8%,11.4,8.6,-0.7,Cc1ccccc1C1CC(c2ccccc2OC(F)F)Nc2ncnn21 (stereo not given)
-1.6%,5.9,-25.7%[15.4 µM],-3.1,-1.8,-2.7,O=C(O)C1C2CCC(C2)C1C(=O)Nc1cccc([N+](=O)[O-])c1 (stereo not given)
7.0%,-3.6,2.1%[15.4 µM],-3.2,-7.5,-0.9,CCOC(=O)c1c(C)[nH]c(C(=O)N2CCCC(C(=O)c3ccccc3OC)C2)c1C (stereo not given)
16.0%,5.3,?,-7.1,1.6,-1.7,Cc1c(CCOC(=O)c2cc([N+](=O)[O-])ccc2Cl)sc[n+]1CCCCS(=O)(=O)[O-]
-6.1%,.,4.9%,-1.5,-1.7,-1.8,CC(C)(CNC(=O)CO/N=C1/C=C2CCC3C(C(O)C[C@@]4(C)C3CC[C@]4(O)C(=O)CO)[C@@]2(C)CC1)C(O)C(=O)O (stereo not given in full)
.,5.7,.,-11.7,-1.9,-1.0,CC1(C(=O)Nc2cccc3c2CCCC3)CCN1C(=O)C1(c2ccccc2)CC1 (stereo not given)
-25.0%,-8.6,4.3%,-1.8,-4.4,7.6,CN(Cc1c(C(=O)N/N=C/c2cccs2)nnn1-c1nonc1N)c1ccccc1
4.7%,-1.1,-7.1%,-8.7,12.2,6.1,COc1ccccc1OCC(=O)NCC1CCCN(Cc2cnn(C)c2C)C1 (stereo not given)
2.7%,-14.2,0.2%,-39.7,-0.7,-8.8,O=C(NCCN1CCN(Cc2ccccc2)CC1)c1ccc(CS(=O)(=O)c2ccc(Br)cc2)o1
5.2%,0.8,-6.0%,-0.2,2.1,-0.4,COC(=O)C1CCN(C(=O)[C@H](C)NC(=O)C2CC(=O)N(c3ccc(F)cc3)C2)CC1 (stereo not given in full)
7.1%,3.1,-0.3%[15.4 µM],-6.0,0.3,8.8,COc1ccc([N+](=O)[O-])cc1NC(=O)CC1SC(=Nc2cccc(C)c2C)N(/N=C(\C)c2ccc(C)cc2)C1=O (stereo not given)
6.7%,4.8,-2.8%,-26.9,2.1,-1.9,Cc1ccc(OCC(=O)N(C)Cc2ccccc2)c([N+](=O)[O-])n1
-0.3%,11.7,0.9%,-6.9,-0.9,-2.1,NC(=O)CSc1nnc(C2CC2)n1Cc1ccccc1
6.9%,-9.3,17.9%,-13.9,5.1,-3.9,NC(=Nc1ccccc1)N(c1ccccc1)c1ccccc1
-4.7%,-1.6,4.7%,0.3,-13.6,3.6,Cc1cc(C(=O)COC(=O)CN=C2NS(=O)(=O)c3ccccc32)c(C)n1CCc1ccc(Cl)cc1
1.1%,4.3,6.2%,3.0,0.5,-1.9,CCOC(=O)c1nn(-c2cc(C(=O)OC)cc(C(=O)OC)c2)cc1O
4.3%,4.7,17.9%,-6.2,-1.8,-2.0,O=C(Cn1cnc2ccccc2c1=O)Nc1ccc(-c2nnc3n2CCCCC3)cc1
.,20.9,.,-3.8,11.2,-2.7,CCCCN(C)c1c(C)nc2ccc(C(=O)NCCCn3ccnc3)cn12
5.1%,1.6,11.1%[15.4 µM],-0.3,4.1,-1.2,CC(C)Sc1nc2[nH]ncc2c(=O)[nH]1
